BJeLR lethal: BJeLR cell viability loss. BJeLR (HRASV12) viability, CellTiter-Glo ATP luminescence, 48 h; reference of the scale not given here. inhibition, % (no concentration beside the values). 300,000 tested, 0.17% active;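 active = replicate mean above 50%; inconclusive = above 50% but judged a plate artefact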;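 also: 50 nL library stock added to about 25 µL; numbers are from one replicate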
Autofluor counter: compound fluorescence in toxin protease inhibitor counterscreen. 360,000 tested, 3.1% active. fluorescence intensity (test concentration not listed). compound autofluorescence counterscreen, microsphere flow cytometry; active compounds read high;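 active = at least 3 SD above the mean of all compounds, about 16000 in these data; inconclusive = too few beads counted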;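 also: 100 nL of 1 mM stock went into each well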
PrP UTR inh: inhibition of PrP 5' UTR reporter expression; inhibition, % (no concentration beside the values); 340,000 tested, 0.35% active; cell-based PrP 5' UTR mRNA reporter, plate reader;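 active = every replicate at 50% or more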;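 also: 0 = median of the neutral control wells; tested in H4 reporter cells; numbers are from one replicate; inactives centre near -14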
Sa RN4220 lethal: kills Staphylococcus aureus RN4220 | S. aureus RN4220 growth, OD600, 16 h | inhibition, % (concentration not given with the values) | 330,000 tested, 0.33% active;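 active = z-score of -3 or lower and OD600 up to 0.18 on both plates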;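 also: plate controls were untreated cells for no effect and reference antibiotic for full effect; stock transfer was 100 nL into about 80 µL; one replicate is shown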
Mtb hypoxia rep: inhibitors of hypoxia-regulated fluorescent reporter in Mycobacterium tuberculosis; M. tuberculosis hypoxia-regulated fluorescent reporter, fluorescence; fluorescence inhibition, % (test concentration not listed); 300,000 tested, 0.1% active;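 active = 35 to 45% if threefold the growth effect, above 45% if 1.5-fold the growth effect; inactive = the rest, general growth blockers included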;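 also: wells of about 50 µL received 100 nL stock; 0% = vehicle wells and 100% = reference inhibitor wells; whole bacteria with a GFP reporter of the hypoxia response; strong numbers were not always called active; many hits fall short of the cut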
Sa ugtP lethal: kills S. aureus RN4220 lacking UgtP; S. aureus RN4220 ugtP deletion, OD600 growth, 16 h; some inactives read as strong as hits; AID 1259309; growth inhibition, % (concentration not given with the values); 330,000 tested, 0.54% active;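 active = z-score under -3 and OD600 up to 0.15 on both plates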;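 also: plate controls were untreated wells for no effect and antibiotic for full effect; wells of about 80 µL received 100 nL stock; the first replicate is given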
Mtb hypoxia rep growth: further read-out of Mtb hypoxia rep, marked with its call; growth inhibition, %; measured here: M. tuberculosis growth (absorbance);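 0% = vehicle and 100% = reference antibiotic; read after six days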
Active calls of the source: *; ? = inconclusive; nt = no result given. Compounds as they come; about 4% have a hit in one of these screens.

SMILES | BJeLR lethal | Autofluor counter | PrP UTR inh | Sa RN4220 lethal | Mtb hypoxia rep | Mtb hypoxia rep growth | Sa ugtP lethal
CCOC(=O)C1=C(COC(=O)/C=C/c2ccc(OCC)c(OC)c2)NC(=O)NC1C (configuration not stated) | -1.6 | 5784 | -11.0 | -0.3 | 5.7 | 2.9 | -7.6
CC(=C/c1ccccc1)/C=N/NC(=O)c1nnn(-c2nonc2N)c1CN1CCC(C)CC1 | 16.9 | 5097 | -15.2 | nt | nt | nt | nt
O=C(OCC(=O)c1ccc(Cl)s1)c1ccc2ccccc2n1 | 7.9 | 2691 | -40.3 | 5.9 | 8.1 | 10.9 | -7.4
O=C(CS(=O)(=O)c1c[nH]c2ccccc12)N1CCCCCC1 | -9.6 | 4859 | -25.7 | 10.3 | 10.0 | 11.6 | 10.0
COc1ccc(CNc2cc([N+](=O)[O-])ccc2OC)cc1 | 7.8 | 10497 | -19.4 | 0.7 | 3.0 | 1.3 | 6.9
O=C(CCc1ccccc1)Nc1cc2c(cc1Cl)OCCO2 | 14.1 | 7004 | -115.0 | 4.9 | -0.3 | 1.5 | 17.1
CN(CC(O)COc1c(F)cc(Br)cc1F)C1CCCCC1 (configuration not stated) | -7.3 | 2528 | -13.6 | -2.6 | -7.4 | 10.9 | 8.7
COc1ccccc1CNC(=O)COC(=O)c1ccc(NC(N)=O)cc1 | -1.7 | 2498 | -19.5 | 1.4 | nt | nt | -3.1
COc1ccc(NC2=NCCC(=O)N2Cc2cccs2)cc1 | -2.6 | 7397 | -6.5 | 12.7 | 2.3 | 2.3 | -1.0
CCC(=O)C1CCCN(C(=O)c2ccc(OC3CCN(C(=O)CCOC)CC3)cc2)C1 (configuration not stated) | -0.2 | 5319 | -8.0 | -1.1 | -3.6 | -1.1 | -4.2
Cc1cc(C)nc(SCC(CSc2nc(C)cc(C)n2)C(=O)O)n1 | 2.0 | 4034 | -54.3 | 6.1 | -0.4 | -6.2 | 9.6
CN1CCc2cccc(Cl)c2CC1 | nt | 4377 | -7.8 | 4.8 | 2.4 | -0.6 | 2.7
Cc1ccccc1C(=O)NNC(=O)Cc1cccc2ccccc12 | -2.3 | 7528 | -59.3 | 0.4 | 3.2 | -2.1 | -4.7
O=C1CCCCN1CC(=O)N1CCCC(Nc2ccc(F)cc2)C1 (configuration not stated) | 5.6 | 5512 | -12.5 | 1.5 | 4.3 | 7.1 | 0.2
CCOc1ccc(CN(C(=O)c2oc3ccccc3c2C)C2CCS(=O)(=O)C2)cc1 (configuration not stated) | nt | 11850 | nt | 4.2 | 5.6 | 6.5 | 5.9
Cc1ccc(C)c(N2CCN(c3ccc4cc(S(=O)(=O)N5CCCCC5)ccc4n3)CC2)c1 | 11.3 | 4298 | -2.0 | -6.2 | 3.1 | 1.5 | -25.2
CC(=O)Nc1ccc(S(=O)(=O)N(C)c2ccc(O)cc2)cc1 | -3.2 | 4187 | -13.2 | 0.6 | -8.2 | 6.3 | -0.7
O=C(NCCc1ccccc1)c1ccc2[nH]c(=O)c(=O)[nH]c2c1 | 1.6 | 5498 | -16.4 | -1.8 | 2.0 | -5.0 | 4.2
O=C(OCCc1cc2ccccc2c(=O)o1)c1ccccc1C(F)(F)F | nt | 4110 | -13.4 | 6.5 | 8.6 | 10.4 | 2.4
CCOC(=O)C(CC)/C(C)=N/NC(=O)c1ccc([N+](=O)[O-])cc1 (configuration not stated) | 6.6 | 12857 | -23.0 | nt | nt | nt | nt
C/C(=N\NC(=O)c1nn(C)cc1Br)c1cccc(NC(=O)C(C)(C)C)c1 | 7.2 | 3158 | -7.5 | nt | nt | nt | nt
CC1CC(C)CN(C(=O)c2cc(-c3ccncc3)nc3ccccc23)C1 (configuration not stated) | 6.8 | ? | -4.5 | 0.9 | 4.1 | 2.4 | 0.8
Cn1nc(-c2ccc(N3CCOCC3)c(NS(=O)(=O)c3ccccc3)c2)c2ccccc2c1=O | -9.4 | 22480* | 7.8 | -1.5 | 5.1 | 6.5 | 0.8
COC(=O)CSc1nc2cc(Cl)ccc2c(=O)n1C1CCCC1 | 2.5 | 10050 | 18.4 | 0.8 | -2.3 | 1.4 | 9.0
CCC(CC)C(=O)Nc1ccc(Sc2ccc([N+](=O)[O-])cc2)cc1 | -2.3 | 19877* | -2.2 | -5.3 | -1.3 | 1.4 | -53.0
O=C(COC(=O)/C=C/c1ccc([N+](=O)[O-])cc1)NCc1ccc2c(c1)OCO2 | 1.8 | 6421 | -8.4 | -2.4 | -8.4 | 5.7 | -1.9
CN(C)S(=O)(=O)N(CC(=O)NCCSCc1ccc(Cl)cc1)c1ccccc1 | -0.1 | 3611 | -15.0 | 3.1 | 0.1 | -1.0 | -4.9
CN1CCN(C(=O)CCCN2C(=O)/C(=C/c3ccccc3)SC2=S)CC1 | 20.0 | 3029 | -16.2 | 1.0 | 19.4 | 12.6 | 27.4
COc1ccc(C2NC(Cc3ccccc3)(C(=O)O)C3C(=O)N(c4ccccc4OC)C(=O)C23)cc1 (configuration not stated) | 1.3 | 3731 | -2.9 | 1.7 | 2.7 | 10.5 | -3.2
O=C(CN1CCCCC1)NN=Cc1ccccc1Br | nt | nt | nt | 21.5 | 3.4 | 2.5 | -1.3
CCOc1ccc(Nc2nc3cc(S(=O)(=O)CC)ccc3o2)cc1 | 0.3 | 4164 | -20.1 | 1.1 | -9.2 | -11.4 | -7.8
CC(=O)N1CCc2cc(S(=O)(=O)CCC(=O)N3CCN(C(=O)c4ccco4)CC3)ccc21 | nt | 2298 | 9.2 | 3.9 | 2.0 | 10.2 | -1.0
O=C(NN=Cc1ccc(O)c(O)c1)c1cccc(S(=O)(=O)N2CCCCC2)c1 | nt | nt | nt | -1.0 | -2.0 | 2.9 | 1.5
COc1ccc(CNC(=O)CSc2nnc(-c3ccc(NC(C)=O)cc3)n2C)cc1 | -1.6 | 17726* | -18.5 | 0.9 | 6.7 | 5.0 | -1.6
O=C(c1ccc(Br)cc1)N(Cc1ccco1)C1CCS(=O)(=O)C1 (configuration not stated) | 1.0 | 5013 | -10.8 | -1.7 | 6.6 | 8.0 | -3.3
CC1Cc2ccccc2N1C(=S)NC(=O)c1cccc(Br)c1 (configuration not stated) | 9.0 | 2377 | 7.8 | 56.6 | 4.9 | 4.7 | 85.2
COc1cc2c(cc1OC)/C(=C/c1ccc(Cl)cc1)C(=O)OC2 | -3.0 | 2412 | -30.8 | 9.4 | 15.8 | 7.8 | 11.6
COc1ccc(-c2noc(C(C)NS(=O)(=O)c3ccc(NC(C)=O)cc3)n2)cc1 (configuration not stated) | 3.0 | 3397 | -26.7 | -0.2 | 12.6 | 1.6 | 9.5
Cc1ccc(CNC(=O)c2cccc(S(C)(=O)=O)c2)cc1 | -4.6 | 3324 | -12.8 | 5.1 | nt | nt | -3.0
Cc1ccc(C(C)NC(=O)c2cc(C)oc2C)cc1 (configuration not stated) | -6.6 | 9624 | -21.2 | 2.7 | 6.2 | 3.1 | -2.1
c1coc(C2Nc3ccccc3C3OCCC23)c1 (configuration not stated) | -0.9 | 8911 | -14.0 | 0.0 | -2.5 | -1.3 | 1.5
COc1ccc(/C=C/C(=O)OCc2csc(-c3ccccc3)n2)cc1OC | -7.9 | 1945 | 7.6 | nt | nt | nt | nt
CCOc1ccccc1C=NNC(=O)c1nnn(-c2nonc2N)c1CN1CCCC1 | nt | nt | nt | 4.6 | 1.2 | -0.6 | 5.9
CN1C(=S)SC(N2OC3C(=O)N(c4ccccc4)C(=O)C3C2c2ccc(Cl)cc2)C1(C)C (configuration not stated) | 4.0 | 2639 | -7.7 | 2.8 | 4.0 | -2.5 | -0.4
O=C(CN1C(=O)/C(=C/c2ccccc2)Sc2ccccc21)NCCCN1CCOCC1 | 2.4 | 5312 | -1.9 | 4.1 | 9.4 | 5.2 | 4.7
Cc1cccc(N2C(=O)/C(=C/c3ccc(CN(CCC#N)S(C)(=O)=O)o3)C(=O)NC2=S)c1 | -2.4 | 4178 | -9.9 | -2.5 | nt | nt | 0.7
COc1ccc2[nH]c(=O)c(CN(Cc3ccc(C)cc3)Cc3nnnn3CC3CCCO3)cc2c1 (configuration not stated) | 6.1 | 2480 | -4.6 | -8.9 | 11.0 | 12.2 | -7.0
CCCC[N+]12C3C[C@H](C4[C@H](O)[C@]5(C[C@@H]41)c1ccccc1N(C)[C@@H]35)[C@H](CC)[C@H]2O (some centres not stated) | 15.8 | 3470 | -21.3 | 1.2 | 6.1 | 0.2 | 15.3
COc1ccc(-c2csc(NC(=O)C3CCCO3)n2)cc1 (configuration not stated) | 5.7 | 7710 | -77.6 | 3.1 | 5.9 | 8.4 | 6.7
CC1(C)Cc2c(sc(/N=C/N3CCCCC3)c2C#N)C(C)(C)N1 | -9.5 | 10317 | -5.7 | nt | nt | nt | nt
OCCC1CN(Cc2nc3ccc(F)cc3[nH]2)CCN1C1CCCC1 (configuration not stated) | 2.0 | 3434 | -23.2 | 7.5 | 9.8 | 7.6 | 1.6
COc1ccc(CNC(=O)C(c2ccco2)N(Cc2cccs2)C(=O)Cc2cccs2)cc1 (configuration not stated) | 19.3 | 4435 | -11.5 | 2.8 | nt | nt | 5.9
O=C(c1ccc(CN2CCc3ccccc3C2)cc1)N1CCN(c2ccccc2)CC1 | 2.2 | 2049 | -22.2 | -4.2 | -11.9 | -4.4 | 3.0
COc1cccc(NC(=O)CC2S/C(=N\S(=O)(=O)c3ccccc3)N(c3ccccc3)C2=O)c1 (configuration not stated) | 9.0 | 2073 | -18.5 | nt | nt | nt | nt
COc1ccc(-c2cn3nc(SCC(=O)NC4CCCCC4)ccc3n2)cc1 | -1.9 | 5337 | -49.2 | nt | nt | nt | nt
OCc1nc2ccccc2n1CCCOc1ccccc1 | -12.0 | 12603 | -43.4 | 4.5 | 6.4 | 12.6 | -5.6
O=C(NNC(=O)C1COc2ccccc2O1)c1ccccc1 (configuration not stated) | -0.4 | 22774* | -9.4 | 2.7 | 8.3 | 12.6 | -1.3
C=CCN1C(=O)C2C(C(=O)NC)C3(C)C=CC2(O3)C1C(=O)NCc1ccc(OC)cc1 (configuration not stated) | -4.7 | 4161 | 4.4 | 1.6 | nt | nt | -3.0
CCn1c(SCC(=O)Nc2cc(C)nn2-c2ccccc2)nnc1-c1cccs1 | -3.7 | 4139 | -15.5 | 4.6 | 12.2 | 2.0 | 0.9
O=C(OCc1ccc(COC(=O)c2ccccn2)cc1)c1ccccn1 | 8.6 | 6024 | -29.5 | 7.9 | 14.5 | 7.2 | -5.6

The final 3 entries of the part before lead into the next.
SMILES | BJeLR lethal | Autofluor counter | PrP UTR inh | Sa RN4220 lethal | Mtb hypoxia rep | Mtb hypoxia rep growth | Sa ugtP lethal
C=CCN1C(=O)C2C(C(=O)NC)C3(C)C=CC2(O3)C1C(=O)NCc1ccc(OC)cc1 (configuration not stated) | -4.7 | 4161 | 4.4 | 1.6 | nt | nt | -3.0
CCn1c(SCC(=O)Nc2cc(C)nn2-c2ccccc2)nnc1-c1cccs1 | -3.7 | 4139 | -15.5 | 4.6 | 12.2 | 2.0 | 0.9
O=C(OCc1ccc(COC(=O)c2ccccn2)cc1)c1ccccn1 | 8.6 | 6024 | -29.5 | 7.9 | 14.5 | 7.2 | -5.6
COC(=O)C1C(c2ccccc2)C(C(=O)N2CCN(C)CC2)C1c1ccccc1 (configuration not stated) | -4.6 | ? | -15.2 | 0.8 | 3.7 | 1.1 | 12.9
CCCCn1c(O)c(N=Nc2ccccn2)c2ccccc21 | -10.0 | 2016 | 1.5 | 8.5 | 2.7 | 1.3 | 19.6
O=C(O)c1ccc(C[n+]2c(-c3ccccc3)csc2Nc2ccccc2)cc1 | 2.9 | 2059 | -14.3 | 4.7 | 4.6 | 6.9 | 9.6
CCN1CCN(CCNC(=O)c2ccc(CS(=O)(=O)c3c(Cl)cccc3Cl)o2)CC1 | nt | 5975 | -14.0 | 2.7 | nt | nt | 9.0

A second format for 2 compounds above.
molecule	BJeLR lethal	Autofluor counter	PrP UTR inh	Sa RN4220 lethal	Mtb hypoxia rep	Mtb hypoxia rep growth	Sa ugtP lethal
COC(=O)C1C(c2ccccc2)C(C(=O)N2CCN(C)CC2)C1c1ccccc1 (configuration not stated)	-4.6	?	-15.2	0.8	3.7	1.1	12.9
O=C(O)c1ccc(C[n+]2c(-c3ccccc3)csc2Nc2ccccc2)cc1	2.9	2059	-14.3	4.7	4.6	6.9	9.6

Assay outcomes deposited in PubChem BioAssay by several laboratories.
